FGF22 binding – binders of human FGF22 protein, primary screen, FGF22 synaptogenesis inhibitor project, biophysical, thermal shift, single point; recombinant FGF22 thermal shift, SYPRO orange fluorescence; percent of sucrose octasulfate shift, DMSO zero; calls only at 9.99 µM; 340,000 compounds, 1.5% hits; AID 651658, 2012;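 active = melting point raised past a set limit in the mean and every replicate; three in four hits are not shown here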
Target sequence (Q9HCT0 whole entry, looked up): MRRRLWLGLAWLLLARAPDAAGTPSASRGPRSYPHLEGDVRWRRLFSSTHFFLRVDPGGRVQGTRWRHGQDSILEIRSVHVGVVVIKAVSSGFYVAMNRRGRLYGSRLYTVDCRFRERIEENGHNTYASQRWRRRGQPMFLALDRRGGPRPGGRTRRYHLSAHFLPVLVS
B2AR ag – beta2AR agonists driving receptor internalization, primary screen, cell-based, FAP fluorogen, flow cytometry; Beta-2 adrenergic receptor (Homo sapiens), P07550; Am2.2-beta2AR cells; reference of the scale not given here; AID 504454, 2011; 340,000 compounds, 0.43% hits; response, % (concentration not given with the values);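 active = response above a set limit, near 3 SD of response in nonfluorescent compounds, cut at about 42% in these data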;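 also: stock transfer was 100 nL into about 11 µL; a reference agonist was the positive control; negative values mostly stem from fluorescent compounds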
Target sequence (P07550 whole entry, looked up): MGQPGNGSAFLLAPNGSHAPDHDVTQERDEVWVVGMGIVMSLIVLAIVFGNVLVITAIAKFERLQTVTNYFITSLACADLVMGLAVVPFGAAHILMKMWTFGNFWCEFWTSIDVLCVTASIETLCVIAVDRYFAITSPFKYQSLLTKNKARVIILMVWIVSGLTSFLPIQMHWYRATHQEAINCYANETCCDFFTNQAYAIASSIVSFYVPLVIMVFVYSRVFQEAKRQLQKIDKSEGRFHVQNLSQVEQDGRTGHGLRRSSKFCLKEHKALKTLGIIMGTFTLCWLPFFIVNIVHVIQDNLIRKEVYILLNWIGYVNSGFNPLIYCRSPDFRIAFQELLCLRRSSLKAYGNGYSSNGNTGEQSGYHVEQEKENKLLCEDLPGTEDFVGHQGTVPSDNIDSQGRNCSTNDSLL
UCH37 DUB inh – inhibitors of human UCH37 deubiquitinase, primary screen, biochemical, Ub-AMC cleavage, fluorescence | Ubiquitin carboxyl-terminal hydrolase isozyme L5 (Homo sapiens), Q9Y5K5 | purified proteasome/UCH37 | inhibition, % (concentration not given with the values) | 330,000 compounds, 0.33% hits | AID 588478, 2011;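 active = mean of two replicates above 20%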;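 also: 0% = compound-free wells with enzyme and 100% = wells lacking proteasome; stock transfer was 100 nL into about 20 µL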
Target sequence (Q9Y5K5 whole entry, looked up): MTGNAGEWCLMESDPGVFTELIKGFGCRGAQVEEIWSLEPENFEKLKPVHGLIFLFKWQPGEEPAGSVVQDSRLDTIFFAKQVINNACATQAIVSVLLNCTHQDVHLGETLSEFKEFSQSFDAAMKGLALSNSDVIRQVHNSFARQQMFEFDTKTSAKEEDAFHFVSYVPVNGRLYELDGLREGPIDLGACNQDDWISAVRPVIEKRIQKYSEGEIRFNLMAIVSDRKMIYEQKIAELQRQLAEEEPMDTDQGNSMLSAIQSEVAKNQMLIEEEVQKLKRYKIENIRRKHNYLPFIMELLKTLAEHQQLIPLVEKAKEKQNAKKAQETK
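Test system – human UCH37 enzyme supplied as purified proteasome complex · Incubation – 30 min preincubation with enzyme, 25 min cleavage at room temperature · Detection – AMC fluorescence from Ub-AMC cleavage, excitation 355 nm, emission 460 nm · Benchmarks – no-proteasome wells (full inhibition) and compound-free wells (no inhibition)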
Ecoli growth – E. coli growth inhibition, primary screen, OD600; Escherichia coli growth, 23 h; stronger effect = lower value; OD600 absorbance (concentration not given with the values); 330,000 compounds, 0.21% hits; AID 1053175, 2014;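 active = OD600 absorbance below the run mean of sample wells minus 3.6 SD, in any replicate, cut at about 0.56 in these data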;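 also: stock transfer was 300 nL into about 60 µL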
HNF4A DNA FP – change in binding of human HNF4A to DNA, primary screen, biochemical, fluorescence polarization, FITC-DNA. 360,000 compounds, 0.3% hits. activity change, % at 10 µM. Hepatocyte nuclear factor 4-alpha (Homo sapiens), P41235. 1 h; in the data active = activity change above about 30%, passing the limit was not always enough;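 also: controls were the assay level and a saturating level of protein; the project sought stronger binding though the title names inhibitors; some compounds called inactive have numbers as strong as hits; positive values seem to mean higher polarization but the record does not say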
LANA-H2B inh – blockers of LANA interaction with H2A/H2B – biochemical, FP readout, HTS, primary screen | Protein LANA1 (Human herpesvirus 8 type P (isolate GK18)), Q9QR71 | cell-free LANA-H2A/H2B peptide, fluorescence polarization | inhibition, % (test concentration not listed) | 320,000 compounds, 0.6% hits; in the data active = inhibition mostly above about 10%, no sharp cut-off; inactive = mostly below about 6.7%;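 also: stock transfer was 7.5 nL into about 10 µL; 0% = median of vehicle wells and 100% = median of positive control wells; one replicate is shown; the record names a cut of 25% in any replicate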
ALR H2O2 inh – inhibitors of human ALR sulfhydryl oxidase, primary screen, biochemical, H2O2 detection, HRP-luminol luminescence, single point. 290,000 compounds, 3.8% hits. FAD-linked sulfhydryl oxidase ALR (Homo sapiens), P55789. AID 485317, 2010. purified ALR, DTT oxidation. inhibition, % (concentration not given with the values);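 active = mean and each replicate at 75% or more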;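 also: stock transfer was 7.5 nL into about 7.5 µL; 0% = neutral wells and 100% = wells with inactivated enzyme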
The depositor's hits bear a star; i = inactive; · = no result given.

SMILES	FGF22 binding	B2AR ag	UCH37 DUB inh	Ecoli growth	HNF4A DNA FP	LANA-H2B inh	ALR H2O2 inh
CCNS(=O)(=O)c1cc(OC)c(Cl)cc1OC	·	-3	3.9	0.69	-2.3	-1.5	-1
CC(C)(C)OC(=O)N1Cc2ccccc2C[C@H]1C(=O)NCC(=O)NC1CCCCC1	i	-4	1.2	0.71	2.1	-2.4	4
CCOC(=O)/C=C/c1ccc(C(F)(F)F)cc1S(=O)(=O)NC(C)(C)C	i	-3	2.8	·	0.6	-4.1	21
Nc1nnn(CC(=O)N/N=C/c2cn[nH]c2-c2ccccc2)n1	i	-9	·	·	5.2	-4.1	-20
C/C(Cl)=C/Cn1c(NCCCn2ccnc2)nc2c1c(=O)[nH]c(=O)n2C	·	1	-2.4	0.72	-2.7	-3.9	10
CSCCC(NC(=O)COc1ccccc1)C(=O)NCc1cccs1 (stereo unspecified)	i	-3	1.8	0.69	5.4	-0.4	3
Cc1ccnc(NS(=O)(=O)c2ccc(NC(=O)C3CC3)cc2)n1	i	1	-1.7	0.73	6.5	1.3	2
CCC(C)NC(=O)Cn1c(COc2ccc(Cl)cc2Cl)nc2ccccc21 (stereo unspecified)	·	-9	1.5	0.71	-2.4	-10	-10
CCc1ccc(C(=O)NNC(=O)c2ccc(=O)n(C)n2)cc1	i	4	5.7	0.69	-4.3	-9.1	9
S=C(NCCN1CCCCC1)Nc1ccccc1	i	1	1.6	0.69	3.5	3.9	-11
Nc1cc(=O)[nH]c(SCC(=O)N2N=C(c3ccc4ccccc4c3)CC2c2ccccc2)n1 (stereo unspecified)	i	2	-18	0.73	-1.6	6.7	0
COC(=O)c1sccc1NC(=O)c1ccc(C(C)C)cc1	i	1	2.0	0.61	0.4	-2.7	13
COc1ccc(C(O)c2ncc(C(F)(F)F)cc2Cl)cc1 (stereo unspecified)	i	-10	0.3	0.66	-1.8	-1.1	-5
COc1ccccc1NC(=O)CN1CCC(n2c(C)nc3cc(F)ccc32)CC1	·	10	-0.2	0.69	0.9	-1.0	-14
CCCCn1c(N)c(N(CCOC)C(=O)c2cccc(S(=O)(=O)N(C)c3ccc(C)cc3)c2)c(=O)[nH]c1=O	i	-2	-0.7	0.67	-2.1	-19	6
CC1=C(C(=O)OC(C)C)C(c2cccs2)C(C(=O)OC(C)C)=C(C)N1	·	6	·	·	2.1	-3.9	1
O=C(Oc1ccc(/C=N/O)cc1)c1ccccc1	·	-5	·	·	-0.2	2.0	89*
O=C(NCc1cccs1)C1CCN(S(=O)(=O)c2ccc3c(c2)OCCO3)CC1	·	4	0.1	0.69	-2.1	-3.5	·
CCOc1ccc(NC(=O)CN(C)C(=O)CSC(C)C(=O)Nc2cc(C)on2)cc1OCC (stereo unspecified)	i	-3	2.0	0.74	-0.8	1.2	0
COCCCNC(=O)Cn1nnc(-c2ccccc2NC(=O)c2ccccc2F)n1	i	-4	-2.3	0.69	1.3	-0.3	1
Cc1ccc(Nc2nnc(SC(C)C(=O)NCC3CCCO3)s2)cc1 (stereo unspecified)	i	5	6.8	0.72	-2.0	-1.7	7
COc1ccc2[nH]cc(CCNS(=O)(=O)c3ccccc3)c2c1	·	0	5.3	0.7	0.1	0.8	95*
Nc1cc(OC(=O)c2ccccc2Br)nn1S(=O)(=O)c1ccccc1	·	4	2.2	0.68	-0.8	-2.3	9
CCc1ccc(OCCNC(=O)c2ccccc2SCc2ccccc2)cc1	·	18	5.5	0.72	-2.6	-8.1	-12
Cn1nc(C(F)(F)F)c(-c2ccc(F)cc2)c1NC(=O)Nc1ccc(F)cc1	i	-133	-1.6	0.6	1.3	-0.6	-20

Record cards (already shown):
Record of Nc1cc(=O)[nH]c(SCC(=O)N2N=C(c3ccc4ccccc4c3)CC2c2ccccc2)n1 (stereo unspecified) : FGF22 binding = i; B2AR ag = 2; UCH37 DUB inh = -18; Ecoli growth = 0.73; HNF4A DNA FP = -1.6; LANA-H2B inh = 6.7; ALR H2O2 inh = 0
Record of Cn1nc(C(F)(F)F)c(-c2ccc(F)cc2)c1NC(=O)Nc1ccc(F)cc1 : FGF22 binding = i; B2AR ag = -133; UCH37 DUB inh = -1.6; Ecoli growth = 0.6; HNF4A DNA FP = 1.3; LANA-H2B inh = -0.6; ALR H2O2 inh = -20

Of the compounds above, these have a Cl atom:
SMILES	FGF22 binding	B2AR ag	UCH37 DUB inh	Ecoli growth	HNF4A DNA FP	LANA-H2B inh	ALR H2O2 inh
CCNS(=O)(=O)c1cc(OC)c(Cl)cc1OC	·	-3	3.9	0.69	-2.3	-1.5	-1
C/C(Cl)=C/Cn1c(NCCCn2ccnc2)nc2c1c(=O)[nH]c(=O)n2C	·	1	-2.4	0.72	-2.7	-3.9	10
CCC(C)NC(=O)Cn1c(COc2ccc(Cl)cc2Cl)nc2ccccc21 (stereo unspecified)	·	-9	1.5	0.71	-2.4	-10	-10
COc1ccc(C(O)c2ncc(C(F)(F)F)cc2Cl)cc1 (stereo unspecified)	i	-10	0.3	0.66	-1.8	-1.1	-5

(more compounds)
SMILES	FGF22 binding	B2AR ag	UCH37 DUB inh	Ecoli growth	HNF4A DNA FP	LANA-H2B inh	ALR H2O2 inh
O=C(NC1CCCCC1)NC1(C(=O)N2CCN3CCCC3C2)CCCCC1 (stereo unspecified)	·	9	2.9	0.67	2.0	29*	1
CCOC(=O)Nc1cccc(OCC(=O)Nc2ccc3c(c2)CCC3)c1	i	-13	0.3	0.7	4.5	0.7	-3
COc1cc(C)nc(Oc2ccc(OCCOc3ccccc3)nn2)n1	i	-7	4.5	0.74	-0.5	0.9	·
Cc1nnc(SC(C)C(=O)Nc2ccc3ccccc3c2)[nH]c1=O (stereo unspecified)	i	0	0.0	0.67	1.1	-9.6	·
Cc1ccc(C2N3CC4([N+](=O)[O-])CN2CC([N+](=O)[O-])(C3)C4(C)C)cc1 (stereo unspecified)	i	-3	-0.1	0.68	1.8	-0.9	-2
CCC(CO)Oc1cc(NCc2ccc(OC)cc2)c2ncn(C(C)C)c2c1 (stereo unspecified)	i	-6	1.3	0.69	-0.1	-2.2	58
COc1ccc(NC(=O)CCNC(=O)Cn2ccc3ccccc3c2=O)cc1Cl	i	0	2.7	0.69	2.2	1.6	·
COc1ccc(C(=O)CSc2ncn[nH]2)cc1OC	·	5	-2.4	0.66	3.0	6.6	4
CCOc1ncccc1C(=O)NCc1ccccc1Cl	i	5	0.6	0.67	-1.1	-1.4	·
COC(=O)c1cc(OC)nc2c1c(=O)n(C)c(=O)n2C	·	-4	-90	0.67	-0.2	9.4	-3
Cc1cc(C)n2nc(CC(=O)NNC(=O)c3ccc(N(C)C)cc3)nc2n1	i	6	4.8	0.65	-0.4	0.3	3
CCOc1ccccc1C(=O)NC1CCN(Cc2nnnn2C2CCCC2)CC1	·	0	2.4	0.72	1.2	·	·
CCOC(=O)NC1(C(F)(F)F)C(=O)N(Cc2ccccc2)C2=C1C(=O)CC(C)(C)C2 (stereo unspecified)	·	-2	4.7	0.73	1.9	1.8	-18
Cc1ccccc1Nc1nnc(SCC(=O)Nc2ccccc2[N+](=O)[O-])s1	i	-6	2.9	0.66	7.6	4.8	-7
O=C(COC(=O)CSc1nnc(-c2ccc(Cl)cc2)o1)NCc1ccc2c(c1)OCO2	·	0	6.4	0.8	1.2	1.9	11
CCc1ccc(NC(=O)C(=O)NCC2CCCO2)cc1 (stereo unspecified)	i	1	3.6	0.68	-5.8	3.7	-15
CCN1CCN(c2ccc(N=Cc3ccc(O)cc3O)cc2)CC1	i	9	9.8	0.69	-1.4	3.9	99*
Cc1nn(Cc2ccc(C(=O)Nc3nccs3)cc2)c(C)c1Cl	·	-4	·	·	-0.7	5.5	-4
Cc1[nH]n(-c2ccccc2)c(=O)c1C(c1ccccc1C(=O)O)c1c(C)[nH]n(-c2ccccc2)c1=O	·	4	2.3	0.63	3.2	2.3	7
NNC(=O)c1ccc(Cn2cccn2)o1	i	9	3.0	0.64	0.8	1.3	-5
COc1cccc(OC)c1CC1SC(=O)NC1=O (stereo unspecified)	i	5	4.6	0.7	0.3	2.9	2
CC(=O)c1ccc(NC(=O)CSc2nnc(-c3ccncc3)n2C2CC2)cc1	i	5	-0.4	0.71	1.4	5.1	15
COc1cc(C(=O)OCC(=O)Nc2ccccc2C(=O)NC2CC2)c([N+](=O)[O-])cc1OC	i	6	0.5	0.67	2.7	-0.8	-3
COc1ccc(OC)c(C(C)NC(=O)C(C)n2cc([N+](=O)[O-])cn2)c1 (stereo unspecified)	i	-12	4.2	0.72	1.0	5.2	8
Cc1ccc(C)c(SCC(=O)OC/C(O)=C(\C#N)c2nc3ccccc3[nH]2)c1	i	30	-11	0.72	12	·	·

The list continues.
SMILES	FGF22 binding	B2AR ag	UCH37 DUB inh	Ecoli growth	HNF4A DNA FP	LANA-H2B inh	ALR H2O2 inh
CC(C)(C)C(=O)C1=C(O)C(=O)N(c2ccccc2)C1c1ccccc1 (stereo unspecified)	i	6	8.1	0.71	-1.1	4.1	2
Cn1ncc(Cl)c1C(=O)N1CCc2ccccc21	·	4	1.4	0.66	3.4	-0.7	·
CC1CCN(c2cc(N3CCOCC3)c([N+](=O)[O-])cc2F)CC1	·	-19	3.2	0.72	-0.7	-5.1	-6
O=C(OCC(=O)N1CCc2ccccc21)C1CCCN1S(=O)(=O)c1ccc(Cl)cc1 (stereo unspecified)	i	-2	1.2	0.71	-3.3	0.5	·
CCCOc1ccc2oc(=O)c3c(c2c1)CCCN3C(=O)CN(C)Cc1ccccc1	·	-18	-25	0.69	-2.6	-2.5	0
CCOC(=O)c1sc(NC(=O)C2CC=CCC2C(=O)O)nc1C (stereo unspecified)	·	-2	3.5	0.7	-4.0	1.7	0
Cc1oc2c(c(C)cc3oc(=O)c(CC(=O)NCC(=O)NCC(=O)O)c(C)c32)c1C	i	0	·	·	0.6	-0.7	30
CC1CCCN(C(=O)COC(=O)CNC(=O)c2sc3ccccc3c2Cl)C1 (stereo unspecified)	i	-5	3.3	0.63	-0.1	0.6	·
Cc1ccc(OCCCSc2ncccn2)cc1C	·	-6	4.7	0.71	-2.0	0.0	·
Cn1c(=O)n(CCc2ccccc2)c(=O)c2c1nc1n2CCN1Cc1ccco1	·	6	2.5	0.71	1.4	1.1	2
CCCCSc1nc2c(cnn2-c2ccc(C)c(C)c2)c(=O)[nH]1	i	4	4.4	0.75	-1.5	0.9	·
COc1ccc(CC(=O)n2[nH]c(=O)ccc2=O)cc1OC	i	4	·	·	-0.4	-4.9	·
Cc1cc(C)n2nc(C(=O)OCCOc3cccc(Br)c3)nc2n1	·	-1	6.9	0.69	-1.7	-0.3	-6
COc1ccc(-c2cnnc(N/N=C/c3ccc(O)c(O)c3)n2)cc1	·	11	·	·	-2.7	0.7	·
CCOc1ccc(N(CC(=O)NCCc2ccccc2)C(=O)CCC(=O)Nc2nccs2)cc1	i	-20	·	·	-1.5	-1.8	-4
COC(=O)c1cn(-c2ccccc2)c(C)c1C(=O)OC	·	0	3.1	0.69	2.8	4.2	19
O=C(O)CCCn1cc(NC(=O)COc2ccccc2[N+](=O)[O-])cn1	i	-5	6.8	0.63	2.6	-1.9	-6
CCc1cccc(NS(=O)(=O)c2c(C)nc3sc(CC)nn3c2=O)c1	i	11	6.7	0.73	-6.4	-0.1	·
Cc1cc(C)nc(SCC(=O)c2ccc(O)c(O)c2)n1	i	3	1.8	0.66	-3.8	0.1	18
CCOC(=O)c1ccc(S(=O)(=O)N2CCN(CC(O)COc3cccc(C(C)=O)c3)CC2)cc1 (stereo unspecified)	i	16	3.0	0.65	-1.1	-1.3	-11
CCC(=O)Nc1cc(OC)cc(OC)c1	·	0	-2.0	0.7	0.8	-2.1	-1
CC(C)Oc1cccc(C(=O)NC2=NCCS2)c1	i	-5	0.1	0.68	-1.2	5.6	14

Assay outcomes: PubChem, several laboratories

These rows are one share of the data. The share of hits here may be higher or lower than overall.
